2A StopGo: FMDV 2A StopGo reporter, luciferase signal; human cells with a luciferase reporter of 2A StopGo recoding; control for the full effect not named in the record; Potency, µM (doses to about 57.9 µM), for the others: top-dose signal change, negative = less light; 1.2% of 410,000 active; active = well fitted falling curve with a large enough effect; inconclusive = small, poorly fitted or top-dose-only effect; inactive = no such curve, though single readings can be large or run the other way; tested in HEK293T cells; note: % is set by controls: 0 for no effect and ±100 for the full control effect; nearly all actives have a fitted effect of over 45% in size; luciferase light after 4 h
SARS PLpro yeast: SARS-CoV PLP inhibition in yeast. S. cerevisiae expressing SARS-CoV PLpro, growth rescue; control for the full effect not named in the record. AID 485353. Potency, µM (doses to about 32.9 µM), for the others: at the highest dose activity, positive = growth rescue. 0.19% of 330,000 active; active means well fitted rising curve with a large enough effect; inconclusive means small, poorly fitted or top-dose-only effect; inactive means no such curve, though single readings can be large or run the other way; note: 0% is about no effect; nearly all actives have a fitted effect of over 55% in size; growth read by luminescence after 48 h
NS1 function inh: inhibitors of influenza NS1 protein function; S. cerevisiae slowed by influenza A NS1, growth recovery by OD600; Potency, µM (highest dose often 46.1 µM), without a hit: at the highest dose activity, positive = more growth; 0.4% of 270,000 active; AID 2326; active means well fitted rising curve with a large enough effect; inconclusive means small, poorly fitted or top-dose-only effect; inactive means no such curve, though single readings can be large or run the other way; note: nearly all actives have a fitted effect of over 50% in size
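In this qHTS, NS1 from influenza A is expressed in budding yeast, where it slows growth. Cells are switched from glucose to 2% galactose medium (pH 6.0, -URA), treated with compound, and growth recovery is read at OD600.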
RE007 growth inh: less growth of the S. pombe RE007 Vpr strain; 0.21% of 360,000 active; Potency, µM (doses to about 92.2 µM), without a hit: top-dose activity change, negative = less growth; S. pombe RE007 Vpr strain, BacTiter-Glo ATP luminescence, 24 h; control for the full effect not named in the record; active = well fitted falling curve with a large enough effect; inconclusive = small, poorly fitted or top-dose-only effect; inactive = no such curve, though single readings can be large or run the other way;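 note: % is set by controls: 0 for no effect and ±100 for the full control effect; nearly all actives have a fitted effect of over 50% in size; the assay follows cell death caused by Vpr and the record does not say whether a fall means rescue or toxicity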
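Fission yeast strain RE007, carrying one chromosomally integrated HIV-1 vpr copy, was seeded at OD 0.01 in PMG+AL medium with 23 nL pinned compound. After 24 h at 30 °C and 99% humidity, viability was read by BacTiter-Glo luminescence.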
Lassa entry inh: inhibitors of Lassa virus binding or cell entry; Potency, µM (doses to about 37.9 µM), inactives show at the highest dose activity change, negative = inhibition, actives largely listed as inhibitors; AID 540256; 1.2% of 300,000 active; Lassa virus pseudotype entry inhibition, cell reporter; control for the full effect not named in the record; active means well fitted inhibition curve with a large enough effect; inconclusive means small, poorly fitted or top-dose-only effect, or effect the other way; inactive means flat fitted curve, though single readings scatter; tested in HEK293 cells; note: % is set by controls: 0 for no effect and ±100 for the full control effect; nearly all actives have a fitted effect of over 50% in size; luciferase read-out
Cruzain noTriton: blocks cruzain activity in detergent-free assay. P25779. purified cruzain, Z-FR-AMC fluorescence, no detergent. Potency, µM, for the others: max response, negative = inhibition, most hits filed as inhibitors. 2.3% of 200,000 active. AID 1476;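 note: plate controls were enzyme without inhibitor for no effect and buffer without enzyme for full effect; nearly all actives have a fitted effect of over 40% in size; top concentration of the series not given in the record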
Target sequence (P25779 123-467 limits assumed): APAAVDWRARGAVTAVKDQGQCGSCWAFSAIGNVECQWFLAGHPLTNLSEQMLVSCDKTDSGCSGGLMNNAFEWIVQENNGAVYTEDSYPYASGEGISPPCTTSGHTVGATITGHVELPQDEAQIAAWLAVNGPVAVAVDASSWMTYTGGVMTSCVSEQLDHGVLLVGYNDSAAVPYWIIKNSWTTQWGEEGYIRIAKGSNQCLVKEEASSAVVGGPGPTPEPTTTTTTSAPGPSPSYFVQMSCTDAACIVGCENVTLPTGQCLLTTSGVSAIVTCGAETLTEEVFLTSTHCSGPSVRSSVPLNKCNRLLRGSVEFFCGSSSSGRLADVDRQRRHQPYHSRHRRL
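Detergent-free condition (0.00005% Triton X-100) in acetate buffer pH 5.5 with DTT. 1.5 nM enzyme and compound were pre-mixed 15 min, then 2 uM Z-FR-AMC substrate added; reaction progress from fluorescence change between first and third reads (60 s).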
Cruzain Triton: cruzain (T. cruzi) inhibition with detergent | Potency, µM, for the others: max response, negative = inhibition, actives largely listed as inhibitors | P25779 | 0.43% of 200,000 active | AID 1478 | purified cruzain, Z-FR-AMC fluorescence, 0.01% Triton;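 note: plate controls were neutral wells for no effect and buffer without enzyme for full effect; nearly all actives have a fitted effect of over 40% in size; top concentration of the series not given in the record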
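Detergent-containing arm of a paired screen for aggregation-based inhibition: 0.01% Triton X-100 present. Cruzain at 1.5 nM cleaved 2 uM Z-FR-AMC at pH 5.5 with 5 mM DTT; AMC fluorescence gain over 60 s measured activity.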
Marburg entry inh: Marburg virus entry inhibition; 1.8% of 300,000 active; Marburg virus pseudotyped entry inhibition, cell reporter; control for the full effect not named in the record; about a third of the inactives were read at about 46 µM; Potency, µM (titrated, usually from 37.8 µM), without a hit: at the top dose activity change, negative = inhibition, most hits filed as inhibitors; active = well fitted inhibition curve with a large enough effect; inconclusive = small, poorly fitted or top-dose-only effect, or effect the other way; inactive = flat fitted curve, though single readings scatter; tested in HEK293 cells; about a fifth of its hits are not listed in these tables; note: % is set by controls: 0 for no effect and ±100 for the full control effect; luciferase read-out
* hit, by the source's call; ? = inconclusive; · = not tested or not shown; & = joins results of further samples; [ ] = another dose, or the depositor's remark. Unless noted, calls come from the whole dose curve; as a rule, active = well fitted curve in the direction sought with a large enough effect; inconclusive = small, poorly fitted or top-dose-only effect, or another doubt; inactive = no such curve, though single readings can be large; an effect the other way counts as inactive or inconclusive. Potency is the fitted concentration of half-maximal effect.

Each structure is followed by: 2A StopGo | SARS PLpro yeast | NS1 function inh | RE007 growth inh | Lassa entry inh | Cruzain noTriton | Cruzain Triton | Marburg entry inh
1: CCSc1nc2ccccc2[nH]1
    20.0% | 12.4%&-4.4% | -63.5%&-57.5% | 6.5%&-2.2% | 0.0%&-4.0% | -1.4%&0.8% | 4.6%&4.6% | 0.8%&3.2%
2: O=C(O)C1C2C=CC(O2)C1C(=O)NCCC1=CCCCC1 (stereo unspecified)
    -13.5% | -5.1% | -13.9% | -0.6% | 3.1% | 18.5% | -5.8% | 29.5%
3: O=C(CCC1CCN(C(=O)c2cccc(Cl)c2F)CC1)Nc1ccccc1
    0.0% | 1.9% | -15.9% | 8.4% | -32.6% | · | · | -15.8%
4: CCN(CC)c1ccc(NC(=O)c2ccccc2F)cc1S(=O)(=O)Nc1ccccc1OC
    43.0%[activator] | -6.4% | -4.7% | · | ? | ? | -16.6% | ?
5: CCCCOC(=O)C1[C@H]2C(=O)N(CCc3ccccc3)C[C@]23C=C[C@H]1O3 (stereo partly specified)
    · | 1.0% | -9.6% | 9.5% | 11.8% | 3.7% | -16.4% | ?
6: O=C(NCc1ccc2c(c1)OCO2)C(=O)Nc1ccccc1
    51.7%[activator] | 1.7% | 10.4% | 7.3% | 6.2% | · | · | 18.5%
7: CCOC(=O)C1(Cc2cccc(OC)c2)CCCN(C(=O)CSC)C1 (stereo unspecified)
    1.4% | · | · | 1.6% | -26.3%[46.1 µM] | · | · | ?
8: c1ccc(-c2csc(Nc3nc(N4CCOCC4)nc(N4CCOCC4)n3)n2)cc1
    -29.3% | 0.7% | -45.0% | -12.7% | 2.5% | ? | 7.4% | -8.7%
9: Cc1ccc(Cl)cc1NS(=O)(=O)c1ccccc1
    42.8%[activator] | · | · | 2.5% | ? | · | · | ?
10: COc1cccc2sc(N3CCN(c4nc5ccccc5s4)CC3)nc12
    ? | -4.3% | -4.1% | ? | -5.3% | ? | 5.9% | 13.5%
11: CCn1cc(C(=O)NCc2ccccc2Cl)c(=O)c2cc(S(=O)(=O)N3CCOCC3)ccc21
    12.1% | · | · | · | -18.2%[46.1 µM] | ? | -7.1% | -5.9%[46.1 µM]
12: Cc1cccc2c1N(CCCOc1ccccc1)C(=O)C2=O
    8.3% | -35.4% | -121.1% | 5.7% | 1.2% | ? | -2.9% | 0.9%
13: Cc1cc(C)nc(NS(=O)(=O)c2ccc(-n3cccc3)cc2)n1
    115.9%[activator] | 4.4% | ? | -4.8% | -16.8% | 0.6% | 4.1% | ?
14: Cc1ccc(O)c(C(=O)c2cnc3c(c2)CN(CCC(C)C)C(=O)N3)c1
    -16.3% | -4.0% | 1.3% | -7.4% | -24.9% | 10µM* | -2.3% | -28.6%
15: Cc1ccccc1Nc1c(N)c(=O)oc2ccccc12
    ? | -3.7% | -1.7% | 18.3% | -13.9% | -5.8% | -11.2% | -5.2%
16: CSCCC(Nc1nc2ccccc2s1)C(=O)O (stereo unspecified)
    ? | 8.4% | -7.9% | 5.8% | 18.6% | 10.4% | 6.1% | -1.8%
17: CC1CCCC(N2CCN(S(=O)(=O)c3ccccc3)CC2)C1 (stereo unspecified)
    -5.3% | 1.0% | 10.1% | 3.4% | · | · | · | -9.6%[46.1 µM]
18: C/C(=C\C(=O)C(F)(F)F)Nc1ccc(C(F)(F)F)cc1
    -1.1% | 4.6% | 7.9% | 0.9% | 1.1% | 1.5% | -5.9% | ?
19: Cc1ccc2cc(C3C(C#N)=C(N)Oc4c3ccc3cccnc43)c(=O)[nH]c2c1 (stereo unspecified)
    -16.7% | 26.8% | 2.82µM* | -20.4% | ? | -13.2% | -7.3% | ?
20: CCOc1ccc2nc(N3CCN(C(=O)C(C)C)CC3)sc2c1
    -9.3% | · | · | · | -2.4%[46.1 µM] | -2.0% | -1.5% | ·
21: COc1ccc(CCNC(=O)CSc2nnc(Cn3c(=O)sc4ccccc43)n2C)cc1OC
    -1.1% | -3.2% | 5.8% | 7.5% | -1.7% | 10.8% | 4.0% | -0.4%
22: Cc1cccc(NC(=O)CCS(=O)(=O)c2ccccc2)n1
    37.2%[activator] | -0.3% | 6.5% | -4.8% | 12.1%[46.1 µM] | · | · | 18.9%[46.1 µM]
23: O=C(Nc1nnc(-c2cc(Cl)ccc2Cl)o1)C1=COCCO1
    24.3% | -2.2% | · | -2.7% | 23.0% | · | · | -8.1%[46.1 µM]
24: COc1ccc(C2CC(Cn3cc(C#N)c(=O)n(C)c3=O)ON2C)cc1 (stereo unspecified)
    -7.6% | 0.5% | · | 7.4% | -6.7%[46.1 µM] | · | · | 8.1%[46.1 µM]
25: CCn1c(SCC(=O)N2CCCCC2)nc2c1c(=O)n(C)c(=O)n2C
    -10.9% | -0.9% | -3.1% | 1.7% | 9.0%[46.1 µM] | · | · | 1.8%[46.1 µM]
26: COc1ccc(N2CCN(S(=O)(=O)c3ccc(Cl)s3)CC2)cc1
    -2.7% | -1.5% | 0.1% | -12.9% | -2.9% | · | · | -8.1%[46.1 µM]
27: CCn1nc(NC(=O)COC)c2cc3cccc(C)c3nc21
    -2.7% | -2.5% | -3.0% | 3.4% | · | · | · | ·
28: COc1ccc(Cl)cc1NC(=O)Cn1c(=O)oc2ccccc21
    -8.5% | 0.3% | 2.1% | -6.5% | ? | · | · | 7.5%
29: O=C1CNC(c2ccccc2Cl)c2cc(Br)ccc2N1 (stereo unspecified)
    -23.4% | 4.0% | 6.0% | -3.4% | -10.0% | · | · | -10.7%
30: CN=c1scc(-c2cc(OC)ccc2OC)n1/N=C/c1c(C)[nH]c2ccccc12
    -26.0% | -25.9% | ? | -6.9% | ? | -22.1% | -3.7% | ?

Three entries picked at random from those above, as already listed:
Each structure is followed by: 2A StopGo | SARS PLpro yeast | NS1 function inh | RE007 growth inh | Lassa entry inh | Cruzain noTriton | Cruzain Triton | Marburg entry inh
3: O=C(CCC1CCN(C(=O)c2cccc(Cl)c2F)CC1)Nc1ccccc1
    0.0% | 1.9% | -15.9% | 8.4% | -32.6% | · | · | -15.8%
26: COc1ccc(N2CCN(S(=O)(=O)c3ccc(Cl)s3)CC2)cc1
    -2.7% | -1.5% | 0.1% | -12.9% | -2.9% | · | · | -8.1%[46.1 µM]
16: CSCCC(Nc1nc2ccccc2s1)C(=O)O (stereo unspecified)
    ? | 8.4% | -7.9% | 5.8% | 18.6% | 10.4% | 6.1% | -1.8%

Further results:
item | structure | 2A StopGo | SARS PLpro yeast | NS1 function inh | RE007 growth inh | Lassa entry inh | Cruzain noTriton | Cruzain Triton | Marburg entry inh
31 | CN(CC(=O)Nc1ccc(F)cc1)C(=O)C1CCN(S(=O)(=O)c2ccc3c(c2)OCCO3)CC1 | -20.7% | 0.5% | · | 3.3% | 2.1% | · | · | -6.9%[46.1 µM]
32 | Cc1cccc(S(=O)(=O)Nc2cc(Cl)ccc2N2CCOCC2)c1 | -5.2% | -20.8% | · | -13.6% | -10.1%[46.1 µM] | · | · | ?
33 | Cc1cc(NC(=O)/C=C/c2cccc(F)c2)n(-c2nc3ccccc3[nH]2)n1 | -4.2% | 19.3% | 19.5% | 20.0% | 11.8% | -4.8% | -4.6% | 20.8%
34 | Cc1cc(CNC(=O)C2CCC(=O)N(CCc3cccc(F)c3)C2)on1 (stereo unspecified) | -5.1% | -1.8% | -7.7% | -2.2% | · | · | · | ·
35 | CCOc1ccc(N(CC(=O)NCc2ccccc2)S(=O)(=O)c2ccc(C)cc2)cc1 | 26.8% | 0.0% | 8.1% | -16.4% | ? | · | · | 1.9%[46.1 µM]
36 | COc1ccc(OCCCC(=O)Nc2ccc3c(c2)OCO3)cc1 | 4.0% | -4.6% | -12.9% | 4.0% | 26.6% | 2.8% | 2.4% | -16.9%
37 | COc1ccc(/C=C2\N=C(C)OC2=O)cc1OC | -12.2% | 1.4% | 2.9% | -5.1% | · | · | · | ·
38 | Cc1cc2cc(CN(Cc3ccco3)S(=O)(=O)c3c(C)ccc4nsnc34)c(=O)[nH]c2cc1C | -19.6% | 14.0% | 6.3% | -5.1% | 8.2µM* | -16.6% | -4.6% | ?
39 | COc1cccc2cc(C(=O)N3CCN(c4ccc(C)cc4C)CC3)c(=O)oc12 | 16.8% | 6.0% | -44.1% | 4.6% | · | ? | -6.1% | 4.4%
40 | O=C(O)c1ccccc1C(=O)Nc1ccccc1NC(=O)c1ccccc1C(=O)O | 44.4%[activator] | · | · | -29.0% | 2.4% | · | · | ?
41 | O=C(COC(=O)c1ccc(N2CCOCC2)c([N+](=O)[O-])c1)Nc1ccc2c(c1)OCO2 | 2.6% | -3.9% | 23.9% | -23.6% | 10.7% | -4.6% | -8.6% | -2.6%
42 | Cn1c(=O)c2c(nc(SCCN3CCOCC3)n2Cc2cccc3ccccc23)n(C)c1=O | -26.6% | 3.6% | -32.5% | -14.0% | -5.0% | 2.7% | -21.9% | ?
43 | Cc1ccc(C(=O)/C=C/NCc2ccc(F)cc2)cc1 | 20.0% | -9.2% | -17.3% | ? | -11.7% | -2.3% | -4.7% | 22.1%
44 | FC(F)(F)c1cc(C(F)(F)F)c2ccc(N3CCN(c4ccccc4)CC3)nc2n1 | -5.9% | -8.8% | 7.2% | -0.1% | -13.4% | -5.6% | -6.4% | ?
45 | CCCCOc1ccc(N(CC(=O)NC2CCCCC2)C(=O)c2snc(C(N)=O)c2N)cc1 | -8.7% | 2.7% | 6.8% | -8.5% | ? | · | · | ?
46 | CC(C)(C)NC(=O)CSc1nnc(-c2ccncc2)o1 | -13.9% | 13.6% | 10.4% | -17.4% | 19.7% | -3.0% | 0.7% | ?
47 | O=C(NCCc1ccccc1)c1ccc2c(c1)nc1n2CCOC1 | -56.4% | · | · | · | 2.7%[46.1 µM] | -15.2% | 2.2% | ·
48 | O=c1cc(-c2cccc(Br)c2)oc2cccc(O)c12 | 17.2% | 1.2% | -1.9% | 2.6% | · | · | · | ·
49 | CC1CCN(C(=O)CCS(=O)(=O)c2cc3c(cc2Cl)NC(=O)CO3)CC1 | -23.9%&-9.1% | -4.2% | 4.3% | 12.8% | 12.8%[46.1 µM] | -8.4% | -3.7% | ·
